Sa RN4220 lethal – S. aureus RN4220 growth inhibition; hit rate 0.33% among 330,000; inhibition, % (test concentration not listed); AID 1259311; OD600, 16 h;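 active = z-score of -3 or lower and OD600 up to 0.18 on both plates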;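 note: plate controls were untreated cells for no effect and reference antibiotic for full effect; stock transfer was 100 nL into about 80 µL; one replicate is shown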
Sa ugtP lethal – compounds lethal to S. aureus RN4220 ugtP deletion mutant; OD600 growth, 16 h; some inactives read as strong as hits; growth inhibition, % (concentration not given with the values); hit rate 0.54% among 330,000;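 active = z-score under -3 and OD600 up to 0.15 on both plates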;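 note: plate controls were untreated wells for no effect and antibiotic for full effect; wells of about 80 µL received 100 nL stock; the first replicate is given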
BJeLR lethal – BJeLR cell viability loss; BJeLR (HRASV12) viability, CellTiter-Glo ATP luminescence, 48 h; reference of the scale not given here; inhibition, % (no concentration beside the values); hit rate 0.17% among 300,000; AID 1554;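 active = replicate mean above 50%; inconclusive = above 50% but judged a plate artefact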;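 note: 50 nL library stock added to about 25 µL; numbers are from one replicate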
Bead autofluor – flagged as autofluorescent in microsphere protease counterscreen; compound autofluorescence counterscreen, microsphere flow cytometry; stronger effect = higher value; fluorescence intensity (no concentration beside the values); hit rate 3.1% among 360,000;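 active = at least 3 SD above the mean of all compounds, about 16000 in these data; inconclusive = too few beads counted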;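 note: 100 nL of 1 mM stock went into each well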
PrP 5UTR inh – suppresses PrP 5' UTR mRNA reporter expression | cell-based PrP 5' UTR mRNA reporter, plate reader | hit rate 0.35% among 340,000 | AID 488862 | inhibition, % (test concentration not listed);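 active = every replicate at 50% or more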;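 note: 0 = median of the neutral control wells; tested in H4 reporter cells; numbers are from one replicate; inactives centre near -14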
Mtb hypoxia inh – inhibitors of hypoxia-regulated fluorescent reporter in Mycobacterium tuberculosis. M. tuberculosis hypoxia-regulated fluorescent reporter, fluorescence. fluorescence inhibition, % (no concentration beside the values). hit rate 0.1% among 300,000;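 active = 35 to 45% if threefold the growth effect, above 45% if 1.5-fold the growth effect; inactive = the rest, general growth blockers included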;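 note: wells of about 50 µL received 100 nL stock; 0% = vehicle wells and 100% = reference inhibitor wells; whole bacteria with a GFP reporter of the hypoxia response; strong numbers were not always called active; many hits fall short of the cut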
Mtb hypoxia inh growth – also measured in Mtb hypoxia inh; calls as there; growth inhibition, %; measured here: M. tuberculosis growth (absorbance);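 0% = vehicle and 100% = reference antibiotic; read after six days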
Numbers without * were called inactive; ? = inconclusive; . = no result given.

#1 O=C(Nc1ccc(F)cc1)Nc1sccc1-c1nc2ccccc2s1
#2 S=C(Nc1cccc(Cl)c1)N(CCCN1CCCC1)Cc1cccn1Cc1ccc(Cl)cc1
#3 COc1ccc(Cl)cc1NC(=O)CN(C)CC(=O)Nc1cccc(S(=O)(=O)N2CCCC2)c1
#4 O=C(NCCC1=CCCCC1)c1cc(-c2ccccn2)nc2ccccc12
#5 O=C(c1ccccc1)N1CCCC(c2nc3c(nnn3Cc3ccccc3)c(=O)[nH]2)C1 (stereo not drawn)
#6 c1nc(Nc2ccc(N3CCOCC3)cc2)c2ccsc2n1
#7 CCOC(=O)C1(C)NC(c2ccc(N(C)C)cc2)C2C(=O)N(CC)C(=O)C21 (stereo not drawn)
#8 COC(=O)c1sc(=S)n(-c2ccccc2)c1N

assay / compound	1	2	3	4	5	6	7	8
Mtb hypoxia inh growth	-11	3	8	4	-2	6	10	5
BJeLR lethal	-10	-4	.	3	4	-1	-5	1
Mtb hypoxia inh	0	6	-3	1	-4	-2	17	-1
PrP 5UTR inh	-9	-15	-17	-8	-8	-28	-26	-37
Bead autofluor	3474	4327	5601	4375	8153	2908	3711	20938*
Sa RN4220 lethal	-0.7	-6.9	-0.2	-1.5	-0.8	3.3	5.0	8.6
Sa ugtP lethal	6	3	0	-8	0	3	3	2

#9 O=C1CCCc2cc3c(cc21)CC1(C3)Cc2cc3c(cc2C1)C(=O)CCC3
#10 COc1cccc(CC(=O)NCC2COc3ccccc3O2)c1OC (stereo not drawn)
#11 CC(=NNC(=O)C1COc2ccccc2O1)c1ccc(C)o1 (stereo not drawn)
#12 COc1ccc(C(CNC(=O)c2cc(S(=O)(=O)NCc3ccco3)ccc2C)N(C)C)cc1 (stereo not drawn)
#13 O=c1[nH]c(CSc2ccccc2)nc2c1oc1ccccc12
#14 Cn1c(SCc2cccc(Br)c2)nnc1-c1ccccn1
#15 O=C(Nc1nc2c(s1)CCCC2)c1ccc(Br)o1
#16 CC(=O)NCCc1nc2ccccc2n1CCOc1ccccc1C

assay / compound	9	10	11	12	13	14	15	16
Mtb hypoxia inh growth	.	-7	-4	10	2	5	-2	11
BJeLR lethal	37	-2	.	.	3	9	3	4
Mtb hypoxia inh	.	-4	6	2	7	14	4	17
PrP 5UTR inh	-45	-15	.	4	-33	-22	-89	-15
Bead autofluor	2992	5753	.	8446	5546	3654	2991	3382
Sa RN4220 lethal	.	-0.1	5.1	0.6	7.0	4.1	3.4	6.2
Sa ugtP lethal	.	0	16	1	-2	1	-5	5

#17 CSc1nc(NC(C)=O)nc(C)c1Br
#18 O=C(COC(=O)/C=C/c1cccs1)NC1CC1
#19 COc1ccc(OC(=O)c2ccc(OC)c(S(=O)(=O)N3CCOCC3)c2)cc1
#20 Cc1csc(NC(=O)COc2ccc3c(C)cc(=O)oc3c2)n1
#21 COCCOC(=O)C1=C(C)NC(=S)NC1/C=C/c1ccccc1 (stereo not drawn)
#22 COc1ccc(C2=NN(c3ccc(C=O)cc3)C(c3ccccc3)C2)cc1 (stereo not drawn)
#23 CCCCCSc1nc2c(cnn2-c2ccccc2)c(=O)[nH]1
#24 O=c1cc(CSc2nnnn2-c2ccccc2)[nH]c2[nH]n(-c3ccccc3)c(=O)c12

assay / compound	17	18	19	20	21	22	23	24
Mtb hypoxia inh growth	7	3	-7	0	1	-1	.	.
BJeLR lethal	-9	-1	-7	-3	-20	4	.	6
Mtb hypoxia inh	2	-1	6	-1	-2	6	.	.
PrP 5UTR inh	-16	-14	-22	-46	-48	.	-25	-5
Bead autofluor	.	3504	5420	10382	2420	.	3334	4172
Sa RN4220 lethal	-6.4	1.8	1.4	3.7	3.8	0.2	4.0	2.0
Sa ugtP lethal	-5	-7	0	-8	3	3	0	2

Gathered by group, those above with bromine.
#14 Cn1c(SCc2cccc(Br)c2)nnc1-c1ccccn1
#15 O=C(Nc1nc2c(s1)CCCC2)c1ccc(Br)o1
#17 CSc1nc(NC(C)=O)nc(C)c1Br

assay / compound	14	15	17
Mtb hypoxia inh growth	5	-2	7
BJeLR lethal	9	3	-9
Mtb hypoxia inh	14	4	2
PrP 5UTR inh	-22	-89	-16
Bead autofluor	3654	2991	.
Sa RN4220 lethal	4.1	3.4	-6.4
Sa ugtP lethal	1	-5	-5

Further entries.
#25 CCOC(=O)C1C2COc3cc(OC)ccc3C2N2C(=O)c3c(C)cc(C)cc3NC(=O)[C@@]12C (stereo partly drawn)
#26 O=C(CN1CCN(Cc2ccccc2)CC1)NNC(=O)c1ccccc1
#27 C[C@H](NC(=O)C1(c2ccccc2)CCN(C(=O)OC(C)(C)C)CC1)C(=O)N[C@@H](C(=O)O)c1ccccc1
#28 CCC1(c2ccccc2)NC(=O)N(CC(=O)Nc2cc(C(F)(F)F)ccc2N2CCCC2)C1=O (stereo not drawn)
#29 COc1ccc(OCc2cc(C(=O)N(C)CCC3CCOCC3)no2)c(Cl)c1
#30 CN(CC1CCCO1)S(=O)(=O)c1ccc(C(=O)Nc2ccc(S(N)(=O)=O)cc2)cc1 (stereo not drawn)
#31 O=C(Nc1nc2cc3c(cc2s1)OCCO3)c1cccs1
#32 O=C(c1cnc2ccccn2c1=O)N1CCc2ccccc21

assay / compound	25	26	27	28	29	30	31	32
Mtb hypoxia inh growth	7	-7	.	7	3	-5	17	6
BJeLR lethal	.	.	-1	8	-2	-6	3	0
Mtb hypoxia inh	2	-3	.	7	5	13	4	-2
PrP 5UTR inh	.	-20	-18	-4	-11	-4	35	-21
Bead autofluor	.	3008	5095	5875	5633	5842	3630	13255
Sa RN4220 lethal	0.9	-0.8	1.6	-1.0	5.9	2.3	12	-2.4
Sa ugtP lethal	-2	7	-3	-1	0	5	21	-5

#33 O=C(O)CSc1nc2ccccc2n1C1CCCCC1
#34 CCN(c1cccc(C)c1)S(=O)(=O)c1ccc2c(c1)CCN2C(C)=O
#35 CCOC(=O)c1ccc(N2CCCCC2)c(NS(=O)(=O)c2cccc(C(F)(F)F)c2)c1
#36 COc1cc(C)c(CNC2CCCCC2)cc1C
#37 Cc1cc(C(=O)N/N=C/c2ccc(O)c([N+](=O)[O-])c2)c(C)n1-c1ccc(F)cc1
#38 Cc1ccc(C=Nn2cnnc2)s1
#39 CCOC(=O)c1csc(CCNC(=O)c2oc3c(Cl)cc(C)cc3c2C)n1
#40 COc1ccc(-c2cc(-c3ccccc3)c(C#N)c(S(C)(=O)=O)n2)cc1

assay / compound	33	34	35	36	37	38	39	40
Mtb hypoxia inh growth	6	11	3	-4	.	14	-3	.
BJeLR lethal	-4	-10	-9	-6	18	.	-6	10
Mtb hypoxia inh	11	15	15	-3	.	13	5	.
PrP 5UTR inh	10	-15	-30	5	-2	.	-31	-12
Bead autofluor	3205	3124	3914	10162	8996	.	5566	2346
Sa RN4220 lethal	3.8	31	0.6	1.0	.	8.1	1.8	13
Sa ugtP lethal	10	1	88*	-2	.	-8	5	17

#41 CCn1c(Sc2ccc(N)cc2Cl)nc2ccccc21
#42 Fc1cccc(CNc2ncnc3ccc(-c4ccc5c(c4)OCO5)cc23)c1
#43 Cc1ccc(S(=O)(=O)Nc2ccc(-n3cnnn3)cc2)c(C)c1
#44 CCCCNC(=O)C(NS(=O)(=O)c1cccc2nsnc12)c1ccccc1 (stereo not drawn)
#45 O=C(NC1CCCC1)C(c1ccsc1)N(C(=O)Cc1cccs1)c1ccccc1 (stereo not drawn)
#46 Cc1cccc(N2C(=O)CSC2=NNC(=O)c2ccc(Cl)cc2)c1C
#47 CC(C)c1nc(NCCN2CCOCC2)c(C#N)c2c1COC(C)(C)C2
#48 Cc1cccnc1NC(=S)NC(=O)/C=C/c1ccco1

assay / compound	41	42	43	44	45	46	47	48
Mtb hypoxia inh growth	-2	17	6	8	4	13	.	.
BJeLR lethal	4	.	.	-2	2	.	4	-1
Mtb hypoxia inh	5	-8	4	6	1	-5	.	.
PrP 5UTR inh	-20	-6	0	-16	-17	.	-1	-24
Bead autofluor	8229	3757	5456	3831	12298	.	4783	2688
Sa RN4220 lethal	13	-19	4.7	5.3	2.6	-3.2	1.1	0.2
Sa ugtP lethal	-8	14	1	0	3	-5	3	4

#49 O=[N+]([O-])c1cc(C=NNc2nc(N3CCCCC3)nc(N3CCCCC3)n2)ccc1O
#50 CN(C(=O)c1cccs1)c1ccc(OCC(=O)Nc2ccc(C(=O)O)cc2)cc1
#51 CC(=O)N1CCN(c2ccccc2NC(=O)c2cccs2)CC1
#52 Cc1ccc(CN2CCN(N=C/C=C/c3ccccc3[N+](=O)[O-])CC2)cc1
#53 CCC(C)(C)n1nnnc1CN1CCN(c2ccc(OC)cc2)CC1
#54 N#CC(C#N)=Cc1ccc(N2CCOCC2)cc1
#55 Cc1ccc(S(=O)(=O)N2CCCCC2C(=O)N2CCN(C)CC2)cc1 (stereo not drawn)
#56 CCN(CC)S(=O)(=O)c1ccc2c(c1)c(=O)c(C(=O)N1CCN(c3ccccn3)CC1)cn2C

assay / compound	49	50	51	52	53	54	55	56
Mtb hypoxia inh growth	20	1	6	4	7	4	.	-2
BJeLR lethal	.	-6	1	.	0	-9	6	-10
Mtb hypoxia inh	15	-3	2	5	7	10	.	-7
PrP 5UTR inh	.	-15	-1	.	-2	-18	-9	-12
Bead autofluor	.	4490	4202	.	4266	5345	5898	3609
Sa RN4220 lethal	-4.5	3.1	4.3	4.4	7.6	1.9	2.2	0.7
Sa ugtP lethal	-6	10	8	17	12	-4	-7	0

#57 CC(C)(O)c1[nH]c2cc(C(F)(F)F)ccc2c1C(C)(C)O
#58 CC(Sc1cccc2cccc(C(=O)O)c12)C(=O)O (stereo not drawn)
#59 Cc1cc(C(=O)CCC(=O)N2CCN(c3ccccc3)CC2)c(C)s1
#60 CCCCCCC(=O)NN=Cc1ccc(Br)cc1
#61 COc1ccccc1CNC(=O)COC(=O)c1cccc(-n2cnnn2)c1
#62 CCCCNC(=O)CNC(=S)N(Cc1ccccc1)Cc1cccs1
#63 N#Cc1c2n(c(=S)n(-c3ccc(F)cc3)c1=O)CCCCC2
#64 CCCCCCCCc1nnc(N)s1

assay / compound	57	58	59	60	61	62	63	64
Mtb hypoxia inh growth	.	.	1	-1	-6	5	2	5
BJeLR lethal	4	3	0	.	.	-13	-3	5
Mtb hypoxia inh	.	.	0	6	-2	12	10	12
PrP 5UTR inh	-10	0	-26	.	3	-1	4	-27
Bead autofluor	4212	3658	5281	.	3877	4464	1960	3777
Sa RN4220 lethal	.	2.1	4.8	-3.4	4.7	5.5	2.0	3.4
Sa ugtP lethal	.	2	1	-13	1	0	2	7

#65 CC(CCc1ccco1)=NNC(=O)CNc1c(Br)cc(Br)cc1Br
#66 COc1ccc(OCCC(=O)OCC(=O)NC2CCCCCCC2)cc1
#67 O=C(N/N=C/c1cc(Cl)cc([N+](=O)[O-])c1O)c1ccc2c(c1)OCO2
#68 Cc1c(C)c2ccc(OCC(=O)NCCCn3ccnc3)cc2oc1=O
#69 Cc1c(Cl)cccc1NC(=O)CSc1nncn1-c1cccnc1
#70 CCC(=O)N(Cc1ccco1)c1nc(-c2ccccc2)cs1
#71 OCCC1CN(Cc2cccs2)CCN1Cc1ccccc1 (stereo not drawn)
#72 CCC1Cc2cc(O)ccc2C2=C1c1ccc(O)cc1CC2CC (stereo not drawn)

assay / compound	65	66	67	68	69	70	71	72
Mtb hypoxia inh growth	7	8	.	5	-3	0	5	1
BJeLR lethal	.	-4	-1	3	9	-2	12	.
Mtb hypoxia inh	21	13	.	-3	12	17	8	6
PrP 5UTR inh	.	1	4	-13	-19	-24	-13	.
Bead autofluor	.	3982	2788	5102	3714	?	2029	.
Sa RN4220 lethal	11	14	.	-1.4	5.2	3.1	0.6	98*
Sa ugtP lethal	-1	4	.	1	1	32	2	89

#73 O=C(O)COc1ccccc1/C=C1\SC(=S)N(c2cccnc2)C1=O
#74 COc1ccc(NC(=O)CN2C(=O)C(=O)N(C3CCCC3)C2=O)c(OC)c1
#75 COc1ccccc1OCC(=O)OCC(=O)NCCN1C(=O)CSC1=O
#76 COCCn1c(SCC(=O)Nc2cccc(C)c2)nnc1C(C)C
#77 COc1ccc(C(=O)CSc2nnc(CNc3ccc(F)cc3)o2)cc1
#78 CSCCC(NS(=O)(=O)c1ccc2c(c1)oc(=O)n2C)C(=O)NC1CCCCC1 (stereo not drawn)

assay / compound	73	74	75	76	77	78
Mtb hypoxia inh growth	10	8	2	.	-1	1
BJeLR lethal	-4	.	-2	7	-5	5
Mtb hypoxia inh	6	15	3	.	2	4
PrP 5UTR inh	.	-10	-4	-7	-13	-15
Bead autofluor	.	3628	15989	5725	3539	5776
Sa RN4220 lethal	3.5	5.3	5.1	3.9	0.3	-6.6
Sa ugtP lethal	7	3	2	-1	1	-3

High-throughput results (PubChem BioAssay)
